Screening data: PubChem, National Center for Advancing Translational Sciences (NCATS)
GLA inh pH 4.5 = alpha-galactosidase A (human) inhibition, pH 4.5 | P06280 | purified enzyme, 4-MU-alpha-Gal fluorescence, pH 4.5 | activity change, negative = inhibition, % at 105 µM | 230,000 tested, under 10 active | AID 1467; inconclusive = small, poorly fitted or top-dose-only inhibition, or a rising curve; inactive = flat fitted curve, though single readings scatter; no compound was filed as active;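 note: 0% = full activity with enzyme and -100% = basal without enzyme; dose as in the result columns while the protocol names 77 µM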
Target sequence (P06280 whole entry, looked up): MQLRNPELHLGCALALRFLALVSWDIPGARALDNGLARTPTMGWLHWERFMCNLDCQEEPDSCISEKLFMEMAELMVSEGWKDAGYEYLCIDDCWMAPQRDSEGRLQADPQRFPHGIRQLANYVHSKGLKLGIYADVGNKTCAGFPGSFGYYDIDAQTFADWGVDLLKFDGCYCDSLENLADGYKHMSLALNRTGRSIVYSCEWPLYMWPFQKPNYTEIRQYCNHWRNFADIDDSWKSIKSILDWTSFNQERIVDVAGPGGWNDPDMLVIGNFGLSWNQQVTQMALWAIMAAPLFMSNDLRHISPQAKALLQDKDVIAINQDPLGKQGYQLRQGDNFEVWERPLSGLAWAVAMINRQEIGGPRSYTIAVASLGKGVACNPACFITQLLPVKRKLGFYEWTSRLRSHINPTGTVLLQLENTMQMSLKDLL
* hit, by the source's call; & = joins results of further samples. A portion of the library; rates above refer to the full screens.

nr	SMILES	GLA inh pH 4.5
1	CCCCc1nc2c(c3c1C[C@H](C)OC3)CN(S(=O)(=O)c1ccc3c(c1)OCCN3C)CC2	-0.1
2	CCOC(=O)C(c1ccc(OC)c(OC)c1)C1c2ccccc2C=C(C)N1C(=O)OC (stereo unspecified)	-7.1
3	CC1COC2=C1C(=O)C(=O)c1c2ccc2c1CCCC2(C)C (stereo unspecified)	-3.2&0.9
4	CSc1nc(N)c2ncn([C@@H]3O[C@H](COP(=O)(O)OP(=O)(O)O)[C@H](O)[C@H]3O)c2n1	0.1
5	CO[C@]12C[C@@H](COC(=O)c3cncc(Br)c3)CN(C)[C@@H]1Cc1cn(C)c3cccc2c13	-3.9
6	CSC(N)=NCCCC(N)C(=O)O (stereo unspecified)	4.5
7	O=c1c(O)c(Br)ccc2c(Br)c(O)c(O)c(O)c12	-0.1
8	CCN(CC)c1ccc(/C=N/NC(=O)c2ccc(O)cc2)cc1	-8.6
9	COc1ccc(-c2nc(C(=O)N3CCN(C)CC3)sc2-c2ccc(OC)cc2)cc1	-2.0
10	COc1ccc(-c2coc3cc(OC(C)=O)cc(OC(C)=O)c3c2=O)cc1	3.4
11	CC(C)=CCC[C@](C)(O[C@@H]1O[C@H](CO)[C@@H](O)[C@H](O)[C@H]1O)[C@H]1CC[C@]2(C)[C@@H]1[C@H](O)C[C@@H]1[C@@]3(C)CC[C@H](O[C@@H]4O[C@H](CO)[C@@H](O)[C@H](O)[C@H]4O[C@@H]4O[C@H](CO)[C@@H](O)[C@H](O)[C@H]4O)C(C)(C)[C@@H]3[C@@H](O)C[C@]12C	-7.5
12	CN(C)C(=O)n1nnnc1Cc1ccc(-c2ccccc2)cc1	-4.5
13	COC(=O)C/C=C/[C@@H](C)[C@H](NC(=O)OCC(Cl)(Cl)Cl)c1ccc2ccccc2c1	0.0
14	COc1ccccc1CNC(=O)c1cccc(-c2ccccc2OC)n1	-1.4
15	COc1cccc2oc(SC)cc(=O)c12	-6.2
16	CN(C)C(=O)c1ccc(-c2ccc3ncnc(NC4CCNCC4)c3c2)cc1	6.2
17	O=C1CCC[C@@H]2CC(NCc3ccc(Cl)c(Cl)c3)C[C@@H]3CCN1[C@H]23 (stereo partly specified)	-13.7
18	COc1ccc2[nH]cc(CCNc3nc(-c4ccc(C(=O)N(C)C)cc4)nc4ccccc34)c2c1	-2.2
19	CC1CC[C@@]23CCC4(C)[C@@]5(C)CCC6C(C)(C)C(O)CC[C@@]6(C)C5C=C[C@@]4(OC2=O)C3C1C (stereo partly specified)	-3.3
20	Cc1ncc(CO)c(C=O)c1O	-0.3&-15.6
21	CNC(=O)[C@]1(C)C[C@H]1[C@H](NC(=O)[C@]1(C)C[C@H]1[C@H](NC(=O)OCc1ccccc1)c1ccccc1)c1ccccc1	-5.7
22	C=CCOC(=O)NC(c1ccc(F)c(F)c1)C(C(=O)COC)C(=O)OC (stereo unspecified)	5.6&-0.7
23	Nc1ncnc2c1nc(Sc1ccc(Cl)cc1)n2[C@H]1O[C@@H]2COP(=O)(O)O[C@H]2[C@@H]1O	-5.9
24	CCNC(=O)[C@H]1O[C@H](n2cnc3c(N)nc(NCCc4ccc(CCC(=O)O)cc4)nc32)[C@@H](O)[C@@H]1O	-0.4
25	CCOC(=O)CNC(=O)O[C@@H]1C(=O)c2cc(Br)ccc2O[C@H]1c1cccc(OC)c1	-7.5
26	CN1CCN(C(=O)c2nc3ccc(Cl)cc3[nH]2)CC1	-8.9
27	COC(=O)[C@H]1O[C@@H](c2cc(OC)c(C)c(OC)c2OCc2ccccc2)[C@H](C)[C@@H]2O[C@]12C	-9.3
28	COC(=O)[C@@]1(Cc2ccc(OC)cc2)[C@H]2c3cc(C(=O)N(C)C)n(Cc4nc5ccccc5[nH]4)c3C[C@H]2CN1C(=O)c1ccccc1	-5.9
29	COc1ccc([C@@H](C)C(=O)c2ccc(O)cc2O)cc1	-1.3
30	O=C(/C=C/c1cccc([N+](=O)[O-])c1)c1ccccc1	-11.5
31	COC(=O)c1ccc(C(NC(=O)OCc2ccccc2)/C(=C/[C@@H](C)C(=O)NCc2nc3ccccc3s2)c2cccnc2)cc1 (stereo partly specified)	1.4
32	CNc1ncncc1-c1ccccc1OC	-26.6
33	CCCCn1c(=O)c2[nH]c(C34CC5CC(CC3C5)C4)nc2n(CCCO)c1=O	-3.8
34	COc1cccc([C@@H]2Oc3ccc(Br)cc3C(=O)[C@H]2OC(=O)NCc2ccc3c(c2)OCO3)c1	-8.5
35	C[C@@H]1C[C@@H]([C@@H](C)CC2CC(=O)NC(=O)C2)C(=O)[C@@H](C)C1	-0.8
36	CC(=O)NCCNc1nc(-c2ccccc2Cl)nc2ccccc12	-0.4
37	COCC(=O)N1CCc2nc(-c3ccccc3)c3c(c2C1)CO[C@@H](C)C3	0.0
38	[N-]=[N+]=Nc1ccc(C(=O)CSC[C@H](NC(=O)CC[C@H](N)C(=O)O)C(=O)NCC(=O)O)cc1	-3.7
39	CCCCCCCC/C=C\CCCCCCCCOC[C@H](COP(=O)([O-])OCC[N+](C)(C)C)OC(C)=O	-15.2
40	O=c1[nH]c(=O)n([C@@H]2O[C@H](CO)[C@@H](O)[C@H]2O)cc1F	-0.7
41	O=c1cc(-c2ccccc2O)oc2cc(O)ccc12	0.6
42	CC1(C)S[C@@H]2[C@H](NC(=O)[C@@H](N)c3ccccc3)C(=O)N2[C@H]1C(=O)O[C@H]1OC(=O)c2ccccc21	-6.3
43	CCOC(=O)c1cnc2c(cnn2CC)c1NN=C(C)C	-5.5&-8.7
44	CC(C)(C)NC[C@@H](O)COc1ccccc1C1CCCC1	5.9
45	CO[C@]12C(COC(N)=O)C3=C(C(=O)C(C)=C(N)C3=O)N1CC1NC12 (stereo partly specified)	-5.6
46	COc1ccccc1N1CCN(CCCCNS(=O)(=O)c2cccc3c(N(C)C)cccc23)CC1	-22.5
47	Nc1ncnc2c1ncn2C1CC(O)C(CO)O1 (stereo unspecified)	-4.0&0.5
48	O=C(N/N=C\c1ccc([N+](=O)[O-])o1)c1ccc(O)cc1	-14.2
49	CC(=O)CCOC1CCCCO1 (stereo unspecified)	3.5
50	C=C1C2CC[C@@]3(C)C(c4ccoc4)OC(=O)C[C@@]13OC1CC(=O)C(C)(C)C(C(O)C(=O)OC)[C@]12C (stereo partly specified)	-3.6
51	C=C1C[C@@]23CC4C5[C@@]6(C)C[C@H](O)C[C@@]57C2[C@H](O)[C@@H]1[C@H](O)[C@H]3[C@H]7N4C6	-1.9
52	COc1ccc([N+](=O)[O-])c2c1CCN2C(=O)CC[C@H](N)C(=O)O	-6.4
53	COC(=O)c1cc(=O)c(O)c2c(O)c(O)ccc2c1	-1.3
54	C[C@@]1(C(NC(=O)c2ccc(-c3ccccc3)cc2)c2ccc(Cl)cc2)C[C@H]1C1CCCCC1 (stereo partly specified)	-2.9
55	Nc1nc(/C(=C/CC(=O)O)C(=O)NC2C(=O)N3C(C(=O)O)=CCSC23)cs1 (stereo unspecified)	1.6
56	CC(CN(C)C)C(C)(O)Cc1ccc(Cl)cc1 (stereo unspecified)	-7.1
57	COCCNc1nc(C)nc2c1nc(-c1ccccc1)n2CCCN1CCCCC1C (stereo unspecified)	0.5
58	COc1cccc(-c2cc(NCc3cccs3)ncn2)c1	4.4
59	Cc1csc(B(O)O)c1	9.6
60	C[C@@H](C(=O)O)c1ccc(C(=O)c2ccccc2)s1	-2.8

A second format for some results above:
25	CCOC(=O)CNC(=O)O[C@@H]1C(=O)c2cc(Br)ccc2O[C@H]1c1cccc(OC)c1
  GLA inh pH 4.5: -7.5
8	CCN(CC)c1ccc(/C=N/NC(=O)c2ccc(O)cc2)cc1
  GLA inh pH 4.5: -8.6

Going on with the list:
nr	SMILES	GLA inh pH 4.5
61	COC(=O)c1cccc(C23CC4(C2)[C@H](CN(CC2CCCCC2)[C@@H]4c2ccccc2)C3c2ccc(C(F)(F)F)cc2)c1 (stereo partly specified)	1.7
62	CCOC(=O)C1Oc2ccccc2C(c2ccccc2)=C1C(C)=O (stereo unspecified)	-6.8
63	COC(=O)[C@@]1(Cc2ccc(F)cc2)[C@@H]2[C@@H](CC(=O)[C@H]2CC(=O)C(=O)N2CCCC2)CN1C(=O)c1ccccc1	1.9
64	Nc1ncn(C2OC(CO)C(O)C2O)c(=O)n1 (stereo unspecified)	-1.6
65	COc1ccc2c(=O)cc(-c3ccccc3)oc2c1O	-9.2
66	COC(=O)[C@@]1(C)C=C[C@@H](Cc2ccccc2)N1C	-0.1
67	NCC(O)C1CCCCCCC1 (stereo unspecified)	-1.3
68	COC(=O)[C@@]1(Cc2ccc(OC)cc2)[C@H]2c3cc(C(=O)N4CCCC4)n(Cc4ccc(Cl)c(C(F)(F)F)c4)c3C[C@H]2CN1C(=O)c1ccccc1	-4.6
69	CCOC(=O)C(CCc1ccccc1)NC1CCc2ccccc2N(CC(=O)O)C1=O (stereo unspecified)	-3.7
70	C[C@]12C=CC(=O)C=C1CCC1C2C(O)C[C@]2(C)C1CC[C@]2(O)C(=O)CO (stereo partly specified)	-8.6
71	COC(=O)c1ccc(C(NC(=O)OCc2ccccc2)/C(=C/[C@@H](C)C(=O)NCc2cc(F)cc(F)c2)c2cccnc2)cc1 (stereo partly specified)	-4.4
72	CN(C)c1ccc(-c2nc(N3CCNCC3)c3ccccc3n2)cc1	-1.3
73	COC(=O)CCC(C)C1CCC2C3CC[C@H]4CC(O)CC[C@@]4(C)C3CC(O)[C@]12C (stereo partly specified)	-17.4
74	COCCNC(=O)C1(CC(C)C)C=CCN1C(=O)c1ccccc1 (stereo unspecified)	-1.3
75	CC1CC[C@@]2(OC1)OC1CC3C4CC=C5CC(O)CC[C@@]5(C)C4CC[C@]3(C)C1C2C (stereo partly specified)	2.0
76	CC(Nc1oc(-c2ccccc2)nc1-c1ccc(C(F)(F)F)cc1)c1ccccc1 (stereo unspecified)	-7.2
77	O=C(O)c1cc(=O)c2cccc(O)c2[nH]1	-9.7&-4.8
78	COc1ccccc1N1CCN(CCCCNC(=O)c2ccc(-c3ccc(C(C)=O)cc3)cc2)CC1	-1.1
79	CNC1=C(Br)C(=O)c2ccncc2C1=O	-10.4
80	Cc1o[nH]c(=O)c1CC[C@H](N)C(=O)O	-2.9
81	N[C@H](C(=O)O)[C@H](O)C(=O)O	-4.4&1.8
82	Cc1nc(NCc2ccccc2)c2nc(-c3ccccc3)n(CCCN(C)C)c2n1	0.9
83	CCCCCCCCCCCCC(C(=O)O)C(C)C(=O)O (stereo unspecified)	-1.9
84	C=C[C@H](C)[C@](C)(O)c1ccccc1	-11.5
85	CN1CCN(c2nc(-c3cccc(NS(C)(=O)=O)c3)nc3ccccc23)CC1	-0.8
86	CCCC(=O)Nc1ncnc2c1ncn2[C@@H]1O[C@H]2COP(=O)(O)O[C@@H]2[C@@H]1OC(=O)CCC	3.5
87	COC(=O)C1=C(C(=O)OC)[C@@H]2N(C)c3ccccc3[C@@]23C[C@@H](CO)N(C(=O)c2cc(C)oc2C)C3=N1	-11.9
88	CC[C@H](NC(C)C)[C@H](O)c1ccc(O)c(O)c1	-3.7
89	COC(=O)CC1c2ccccc2C=C(C2CC2)N1C(=O)OC (stereo unspecified)	-1.8&-5.0
90	CC1(COc2ccc(CC3SC(=O)NC3=O)cc2)CCCCC1 (stereo unspecified)	-0.5

Remaining list, next part
nr	smiles	GLA inh pH 4.5
91	CCCn1c(C)nc2c(NCCCCN(C)C)nc(C)nc21	0.5
92	COc1cc2oc(=O)cc(-c3ccc(-c4ccc(NC(C)=O)cc4)cc3)c2c(OC)c1OC	-12.7
93	COc1ccnc(CS(=O)c2nc3ccc(OC(F)F)cc3[nH]2)c1OC (stereo unspecified)	2.1
94	COc1cc(O)cc(OC)c1OC	1.0
95	COC/C=C/C1=CC2=CC(=O)C(C)(O)C(=O)C2=CO1 (stereo unspecified)	-4.8
96	C=C[C@@]1(C)CC[C@H](O)[C@H]2C(=O)CCC[C@@H]21	-5.7
97	COc1c(O)c(O)cc2c1oc1c3cc(C)ccc3oc(=O)c21	-0.4
98	CC1=C(C)C[C@@]23CCCN2C(=O)CCC[C@H]3C1	-2.4
99	C#CCCCCCCCCCCCC(O)CC(O)COC(C)=O (stereo unspecified)	27.8
100	CC(C)=CCc1c(O)cc(O)c2c1O[C@H](c1ccccc1)CC2=O	-4.9
101	CCCCc1nc2c(c3c1C[C@H](C)OC3)CN(C(=O)C1CC1)CC2	4.5
102	COC(=O)[C@@]1(Cc2ccc(F)cc2)[C@H]2c3cc(C(=O)N4CCCC4)n(Cc4ccc(OC(F)(F)F)cc4)c3C[C@H]2CN1C(=O)c1ccccc1	-8.5
103	O=C(/C=C\C=C/c1ccc2c(c1)OCO2)N1CCCCC1	2.7
104	C[C@@H]1Cc2ccccc2N1NC(=O)c1ccc(Cl)c(S(N)=O)c1 (stereo partly specified)	-0.2
105	COc1cccc([C@@H]2Oc3ccc(OC)cc3C(=O)[C@H]2OC(=O)NCCOc2ccccc2)c1	-15.3
106	COc1ccc2c(c1)OCC(Cc1ccc(OC)c(OC(C)=O)c1)C2=O (stereo unspecified)	4.1
107	NC(=O)NCC(N)C(=O)O (stereo unspecified)	-0.4
108	Cc1noc(C)c1S(=O)(=O)N1CCc2nc(-c3ccccc3)c3c(c2C1)CO[C@@H](C)C3	2.5
109	CCCCCCCCCCCCCCCC(=O)NCC(=O)O	2.2
110	COCC1=C2c3ccccc3[C@H](C[N+](=O)[O-])C(C(=O)OC)(C(=O)OC)C[C@@H]2n2c(=O)n(-c3ccccc3)c(=O)n2C1	-10.5&-6.3&-2.0
111	CC(=O)OC1CCC2(C)C3CCC4(C)C(CC5CCCCC54C(C)=O)C3CC(=O)[C@@]2(O)C1 (stereo partly specified)	2.7

Fetched by structure from above, seven records:
nr	smiles	GLA inh pH 4.5
101	CCCCc1nc2c(c3c1C[C@H](C)OC3)CN(C(=O)C1CC1)CC2	4.5
91	CCCn1c(C)nc2c(NCCCCN(C)C)nc(C)nc21	0.5
100	CC(C)=CCc1c(O)cc(O)c2c1O[C@H](c1ccccc1)CC2=O	-4.9
107	NC(=O)NCC(N)C(=O)O (stereo unspecified)	-0.4
106	COc1ccc2c(c1)OCC(Cc1ccc(OC)c(OC(C)=O)c1)C2=O (stereo unspecified)	4.1
110	COCC1=C2c3ccccc3[C@H](C[N+](=O)[O-])C(C(=O)OC)(C(=O)OC)C[C@@H]2n2c(=O)n(-c3ccccc3)c(=O)n2C1	-10.5&-6.3&-2.0
99	C#CCCCCCCCCCCCC(O)CC(O)COC(C)=O (stereo unspecified)	27.8
